GIV-Gai inh – inhibitors of GIV peptide binding to Galpha-i3, primary screen, biochemical, fluorescence polarization, FITC-GIV GBA peptide, rat Galphai3; Guanine nucleotide-binding protein G(i) subunit alpha-3 (Rattus norvegicus), P08753; 90 min; hits give low values; scaled: aluminum fluoride 0%, vehicle 100%; percent of control (FP), % (no concentration beside the values); 210,000 compounds, 0.42% hits; AID 1224905, 2016;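 active = replicate mean at 85% of control or lower, very high polarization wells dropped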;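 note: wells of about 15 µL received 100 nL stock; the first replicate is given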
Target sequence (P08753 whole entry, looked up): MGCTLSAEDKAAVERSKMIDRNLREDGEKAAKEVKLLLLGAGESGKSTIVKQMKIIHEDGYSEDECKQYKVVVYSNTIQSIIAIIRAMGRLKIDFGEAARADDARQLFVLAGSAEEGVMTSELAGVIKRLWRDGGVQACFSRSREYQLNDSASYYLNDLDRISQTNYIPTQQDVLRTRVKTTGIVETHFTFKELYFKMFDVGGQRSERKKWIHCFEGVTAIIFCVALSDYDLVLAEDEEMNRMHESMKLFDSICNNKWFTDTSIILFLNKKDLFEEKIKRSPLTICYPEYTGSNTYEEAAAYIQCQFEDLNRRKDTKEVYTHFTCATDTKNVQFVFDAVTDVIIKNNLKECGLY
HCMV UL50-53 inh – inhibitors of HCMV UL50-UL53 interaction, biochemical, HTRF; 190,000 compounds, 0.15% hits; inhibition, % (no concentration beside the values); AID 1918969, 2023; normalized percent inhibition;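 active = both replicates at 50% or more, plus weaker picks with an unusually low signal ratio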;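 note: stock transfer was 100 nL into about 20 µL; 0% = negative control wells and 100% = wells with untagged competitor protein; inactives centre near -12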
Sa growth inh – S. aureus growth inhibition at 42 and 30 °C, primary screen, LtaS inhibitor project, RN4220, two temperatures. OD600, 20 h, 42 °C; hits give low values. relative growth, % (no concentration beside the values). 170,000 compounds, 0.53% hits;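 active = growth at 42 °C up to 50% and 20 or more points under that at 30 °C, or under 10% at both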;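 note: 300 nL library stock went into each well; scaled to the means of positive and negative controls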
Sa growth inh second temp – second read-out of Sa growth inh, no call of its own (marks repeat the call); relative growth, %; measured here: growth at 30 °C;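 optical density after 20 h as mean of two plates; 100% = untreated growth and lower means inhibition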
* hit, by the source's call; x = not tested or not shown.

Start of the listing, in advance (four entries):
SMILES | GIV-Gai inh | HCMV UL50-53 inh | Sa growth inh | Sa growth inh second temp
COc1cc2c(c(OC)c1)C(c1cc(OC)c(OC)c(OC)c1)CC(=O)N2 (configuration not stated) | 104 | -7 | 109 | 92
Cc1cc(C)c(NC(=O)Cn2c(=O)n(CCC(=O)NCc3ccccc3Cl)c(=O)c3sccc32)c(C)c1 | 104 | -35 | 102 | 85
Cc1ccc(SCC(=O)NCCCN2CCCC2=O)c(C)c1 | x | -5 | 101 | 100
O=C(NC1CCN(Cc2ccccc2)CC1)c1cc(CN2CCOCC2)on1 | 98 | -27 | x | x

The listing, repeating the preview:
SMILES | GIV-Gai inh | HCMV UL50-53 inh | Sa growth inh | Sa growth inh second temp
COc1cc2c(c(OC)c1)C(c1cc(OC)c(OC)c(OC)c1)CC(=O)N2 (configuration not stated) | 104 | -7 | 109 | 92
Cc1cc(C)c(NC(=O)Cn2c(=O)n(CCC(=O)NCc3ccccc3Cl)c(=O)c3sccc32)c(C)c1 | 104 | -35 | 102 | 85
Cc1ccc(SCC(=O)NCCCN2CCCC2=O)c(C)c1 | x | -5 | 101 | 100
O=C(NC1CCN(Cc2ccccc2)CC1)c1cc(CN2CCOCC2)on1 | 98 | -27 | x | x
O=C(c1noc2c1CCc1sccc1-2)N1CCc2ccccc21 | 100 | 8 | 98 | 104
O=C(Cn1cnc2c(nnn2Cc2ccccc2)c1=O)c1ccccc1 | 98 | -3 | 101 | 92
Cc1nnc(NCc2ccccc2)c2c1nnn2Cc1ccccc1Cl | 104 | -22 | 97 | 88
Cc1cccc(OCC(=O)Nc2ccccc2C(=O)OCc2cc(=O)n3ccsc3n2)c1 | 102 | x | 99 | 100
CCOC(=O)c1ccc(Nc2c(-c3ccc(N(C)C)cc3)nc3nc[nH]n23)cc1 | 104 | x | 96 | 80
Cc1cccc(-n2ncc3c(NCCOCCO)ncnc32)c1 | 98 | x | 92 | 81
CNC(=O)c1nsc(C(=O)OC)c1N | 97 | -126 | x | x
O=C(CSc1nccn2nc(-c3ccc(F)cc3)cc12)Nc1cc(F)ccc1F | 101 | 4 | x | x
CCOc1ccc(NC(=O)CC2C(=O)N(c3ccc(C)cc3)C(=O)N2C2CCCCC2)cc1 (configuration not stated) | 99 | -18 | 98 | 87
CC1S/C(=N\N=C/C23CC4CC(CC(C4)C2)C3)NC1=O (configuration not stated) | 110 | 1 | 98 | 93
CC1CCCCN1S(=O)(=O)c1ccc(F)c(C(=O)Nc2c(F)cc(F)cc2Br)c1 (configuration not stated) | 106 | x | 90 | 104
CN1C(=O)CC(c2ccco2)Sc2ccccc21 (configuration not stated) | 105 | -54 | 85 | 92
Cc1nnc(SCC(=O)c2ccc(Cl)cc2)s1 | x | 2 | 86 | 74
CCOC(=O)CNc1nc(CC(=O)OC)nc2sc(C(=O)OCC)c(C)c12 | 107 | -24 | x | x
Cc1cc(C)c(Cn2c3ccccc3c3cnn(CC(=O)NCc4ccco4)c(=O)c32)c(C)c1 | 101 | -2 | 81 | 84
Cc1ccc(-c2noc(-c3cccnc3NCc3cccnc3)n2)cc1 | 101 | -20 | x | x
OC[C@H]1O[C@@H](n2cnc3c(NC4CCCC4)ncnc32)C(O)[C@H]1O (some centres not stated) | 101 | -8 | x | x
CCC(C)NC(=O)c1cnc2sccn2c1=O (configuration not stated) | 104 | -16 | x | x
CC(=O)Oc1ccc(-c2nc(-c3ccccc3)no2)cc1 | 104 | -4 | 32 | 25
c1ccc(NCC2OCc3ccccc3CO2)cc1 | 99 | x | 91 | 90
COc1ccc2c(c1)c1c3n2CCN(C)C3=NCC1 | 110 | -52 | 101 | 86
CCSc1nc2c(c(=O)n1CC)C1(CCCC1)Cc1ccccc1-2 | 102 | x | 87 | 89
Cc1nn(C)c(C)c1NS(=O)(=O)c1ccccc1 | 98 | -1 | 104 | 94
COC(=O)c1c(Cc2cccc(C(F)(F)F)c2)c[nH]c1C | x | -1 | 111 | 93
CCN1CCN(c2nc3ncn(CC(=O)Nc4ccc5c(c4)OCO5)c(=O)c3s2)CC1 | 105 | -29 | x | x
CC(Sc1nnc(-c2ccco2)n1C(C)C1CC2CCC1C2)C(N)=O (configuration not stated) | x | 12 | 87 | 96
Cc1cccc(C)c1N=C(NO)c1nonc1N | 103 | 5 | 94 | 114
CCOC(=O)c1c(NC(=O)c2cc(-c3ccc4c(c3)OCO4)on2)sc2c1CCCC2 | 98 | x | 110 | 91
O=C(Nc1nnc(-c2ccc(Cl)cc2)o1)C1CC1 | 101 | 1 | 2.6* | 1.2*
Cc1cccn2c(=O)c3cc(C(=O)NCc4cccnc4)c(=N)n(CCCO)c3nc12 | 107 | -63 | 88 | 86
CC(C)NC(=O)C1CCCN(c2nnc(-n3cccc3)s2)C1 (configuration not stated) | 105 | 1 | 102 | 81
O=C(NCCc1c[nH]c2ccccc12)c1cc2c(s1)CCC2 | x | 0 | 96 | 88
O=C(COc1ccc(Cl)cc1Cl)NC(=O)NC1CCCC1 | x | -4 | 104 | 89
N#CCc1c(C#N)c(N)nc(Nc2ccccc2)c1C#N | x | 72* | 88 | 96
CC(=O)OC1C(=O)OC2C1OC(n1ccc(=O)[nH]c1=O)C2OC(C)=O (configuration not stated) | x | -16 | 90 | 83
O=C(NCCN1CCN(C(=O)Nc2ccccc2)CC1)Nc1ccccc1 | 101 | -10 | 100 | 88
Cc1nc2ccccn2c(=O)c1NC(=O)C(C)C | 104 | -58 | 85 | 81
CCN1CCC(=NNC(=O)COc2ccc(Cl)cc2Cl)CC1 | x | 19 | 86 | 96
O=S(=O)(c1ccc(-c2cc(C(F)(F)F)on2)o1)N1CCN(c2ncccn2)CC1 | 106 | -5 | x | x
CCOC(=O)c1cc2c(ccn2-c2ccc(F)cc2)n1CC(=O)c1ccc2c(c1)OCCO2 | 100 | 5 | 98 | 105
O=C(OCC(=O)N1CCOCC1)c1cc(F)c(F)cc1Cl | x | -31 | 126 | 90
COC(=O)c1nc2ccccc2nc1N1CC=C(c2ccccc2)CC1 | 107 | -31 | x | x
COc1ccc(OC)c(NC(=O)c2cc3cccc(OC)c3oc2=O)c1 | 106 | -16 | 97 | 86
C=CCOc1ccc2ccc(=O)oc2c1 | x | -21 | 89 | 85
COCCCNCc1ccc(-c2ccc(C(C)O)cc2)o1 (configuration not stated) | 107 | -33 | x | x
CCCCNC(=O)c1cnc2sc(N3CCCCC3)nn2c1=O | 98 | x | 92 | 91
COc1ccc(Cn2ccc3nc(C)c(C(=O)N4CCN(c5cccc(OC)c5)CC4)cc3c2=O)cc1 | 102 | x | 96 | 86
CCNC(=O)C1CCCN(S(=O)(=O)N(CC)c2ccc(OCC)cc2)C1 (configuration not stated) | 101 | -37 | 94 | 97
O=C(COC(=O)c1ccc(O)cc1)Nc1cc(C(F)(F)F)ccc1N1CCOCC1 | x | -9 | 97 | 97
Nc1cccc(C(=O)N2CCOCC2)c1 | 101 | -28 | 95 | 82
CCOC(=O)c1c(C)c(C(=O)N2CC(C)CC(C)C2)c(C)n1C (configuration not stated) | 101 | -17 | 94 | 90
COC(CNc1ncnc2sc3c(c12)CCC3)OC | x | -29 | 77 | 93
CCC(=O)c1ccc(OC(F)F)cc1 | x | -3 | 70 | 90
COc1ccc(N2CCN(Cc3nc4ccsc4c(=O)[nH]3)CC2)cc1 | x | -18 | 94 | 95
Cc1n[nH]c(C)c1CS(=O)(=O)c1ccccc1 | 103 | -14 | x | x
COc1ccc(NS(=O)(=O)c2sc(Cl)cc2Br)c(OC)n1 | 97 | -3 | 96 | 105

Reprinted at random: 5 records from the list
SMILES | GIV-Gai inh | HCMV UL50-53 inh | Sa growth inh | Sa growth inh second temp
O=C(COC(=O)c1ccc(O)cc1)Nc1cc(C(F)(F)F)ccc1N1CCOCC1 | x | -9 | 97 | 97
Nc1cccc(C(=O)N2CCOCC2)c1 | 101 | -28 | 95 | 82
COCCCNCc1ccc(-c2ccc(C(C)O)cc2)o1 (configuration not stated) | 107 | -33 | x | x
Cc1n[nH]c(C)c1CS(=O)(=O)c1ccccc1 | 103 | -14 | x | x
COc1ccc(N2CCN(Cc3nc4ccsc4c(=O)[nH]3)CC2)cc1 | x | -18 | 94 | 95

The listing continues.
SMILES | GIV-Gai inh | HCMV UL50-53 inh | Sa growth inh | Sa growth inh second temp
CN(c1cccc2cccnc12)S(=O)(=O)c1ccccc1 | x | 9 | 115 | 61
CC1=CC(=C2C(=O)NC(=S)NC2=O)C=C(C(F)(F)F)N1CCOCCO | 108 | -104 | 98 | 87
O=C(Nc1ccc(F)cc1)N1CCN(c2ccccc2F)CC1 | 105 | 20 | 127 | 105
COc1ccc(C)cc1NC(=O)C1CC1C (configuration not stated) | x | -25 | 90 | 92
O=C1CN(C(=O)C2CCCCC2)C(c2ccccc2)c2cc(F)ccc2N1 (configuration not stated) | 103 | -16 | 102 | 89
CCN(CCCNC(=O)c1cc2cc3ccc(OC)cc3nc2s1)c1ccccc1 | 107 | -13 | 118 | 87
NS(=O)(=O)c1ccc2ccccc2c1 | x | -19 | 119 | 84
O=C(COC(=O)c1c2c(nc3ccccc13)CCC2)Nc1ccccc1 | x | -19 | 85 | 83
COc1ccc(N(C(=O)c2cc(OC)c(OC)c(OC)c2)S(=O)(=O)c2ccc(C)cc2)cc1 | 108 | 16 | 101 | 96
c1ccc2c(CN3CCN(Cc4ccncc4)CC3)c[nH]c2c1 | 109 | 6 | 100 | 97
Cc1ccc(N2CC(C(=O)Nc3ccc(-c4nc(C)no4)cc3)CC2=O)cc1 (configuration not stated) | 107 | -16 | x | x
COc1ccccc1N1CCN(C(=O)CSc2nnc(-c3cc4ccccc4n3C)o2)CC1 | 98 | -3 | x | x
CN(C)c1c(F)cc(C(=O)NCc2ccccc2)cc1F | 101 | -24 | 100 | 87
Cc1cc(C)c2c(=O)[nH]n(C3CC(C)N(C)CC3C)c2n1 (configuration not stated) | 97 | -20 | 92 | 92
CCOC(=O)N1CCC(NC(=O)c2ccc3c(c2)N(Cc2cc(C)ccc2C)C(=O)c2ccccc2S3=O)CC1 (configuration not stated) | 98 | -12 | 106 | 92
COC(=O)NC1c2ccccc2Oc2ccc(C)cc21 (configuration not stated) | 101 | -27 | 102 | 94
C=CCSc1nc2c(cnn2-c2ccc(C)c(C)c2)c(=O)[nH]1 | 101 | x | 100 | 87
Cn1cnnc1SCC(=O)Nc1ccccc1 | 105 | -29 | 96 | 88
CC(=O)Nc1c(C(=O)N2CCOCC2)sc2nc3c(cc12)COC(C)(C)C3 | 111 | 15 | 111 | 100
COc1ccc(C2=C(N3CCN(c4cccc(C)c4C)CC3)c3ccccc3C2=O)cc1 | 106 | -10 | 116 | 88

Shown field by field: four of the compounds above.
> CCN(CCCNC(=O)c1cc2cc3ccc(OC)cc3nc2s1)c1ccccc1
- GIV-Gai inh: 107
- HCMV UL50-53 inh: -13
- Sa growth inh: 118
- Sa growth inh second temp: 87
> NS(=O)(=O)c1ccc2ccccc2c1
- GIV-Gai inh: x
- HCMV UL50-53 inh: -19
- Sa growth inh: 119
- Sa growth inh second temp: 84
> O=C(COC(=O)c1c2c(nc3ccccc13)CCC2)Nc1ccccc1
- GIV-Gai inh: x
- HCMV UL50-53 inh: -19
- Sa growth inh: 85
- Sa growth inh second temp: 83
> COc1ccc(N(C(=O)c2cc(OC)c(OC)c(OC)c2)S(=O)(=O)c2ccc(C)cc2)cc1
- GIV-Gai inh: 108
- HCMV UL50-53 inh: 16
- Sa growth inh: 101
- Sa growth inh second temp: 96

Carrying on:
SMILES | GIV-Gai inh | HCMV UL50-53 inh | Sa growth inh | Sa growth inh second temp
CC(Sc1n[nH]c(-c2ccncc2)n1)C(=O)N(C)c1ccccc1 (configuration not stated) | x | -33 | 96 | 90
CCNc1c(NS(=O)(=O)c2ccc(C)cc2)c(=O)oc2ccccc12 | 103 | -24 | 99 | 88
O=C(CSc1ncccn1)c1ccc(O)c(O)c1 | 104 | -47 | 84 | 72
CCc1ccc2nc(N3CCC(C(=O)NC4CC4)CC3)sc2c1 | 109 | -28 | 94 | 63
O=C(Nc1ccc(Cl)cc1C(F)(F)F)C(Sc1cccc[n+]1[O-])c1ccccc1 (configuration not stated) | x | -14 | 93 | 92
COc1ccc(NC(=O)c2oc3ccccc3c2NC(=O)c2cc3ccccc3o2)cc1 | 105 | 7 | 96 | 91
COc1ccc(CC(=O)N2N=C(C)CC2(O)C(F)(F)F)cc1 (configuration not stated) | x | -3 | 78 | 96
Cc1cc(C)cc(N2C(=O)CCSC23C(=O)N(Cc2ccccc2)c2ccccc23)c1 (configuration not stated) | 105 | x | 90 | 96
O=C(NCc1ccccc1)c1cc2ccccc2o1 | 104 | x | 109 | 90
O=C(CCc1nc2ccccc2c(=O)[nH]1)N(Cc1nnc(-c2ccccc2Cl)o1)C1CC1 | x | -10 | 113 | 77
Cc1cc(/C=N/NC(=O)c2ccncc2)c(C)n1-c1ccccc1 | 109 | -16 | 98 | 89
Cc1ccc(C(C)C)c(OCC(=O)Nc2cc(-c3nc4ncccc4o3)ccc2C)c1 | 88 | x | 121 | 84
CCN(C(=O)CSc1nccn1C)c1ccccc1 | x | -33 | 122 | 81
CN1CCCC1CCOC(C)(c1ccccc1)c1ccc(Cl)cc1 (configuration not stated) | 97 | 6 | x | x
CC(=O)Nc1ccc(S(=O)(=O)NCC2CCC(C(=O)N3CCC4(CC3)OCCO4)CC2)cc1 (configuration not stated) | x | -4 | 97 | 97
COc1ccc(-c2c3c(=O)n(C)c(=O)n(C)c3c3c(C)nc4ccccc4n23)cc1 | 104 | -37 | 90 | 90
CS(=O)(=O)Nc1ncnc2sccc12 | x | -17 | 106 | 97
